Assay outcomes: PubChem BioAssay, The Scripps Research Institute Molecular Screening Center
BaF3 parental = parental Ba/F3 cell viability inhibition, counter-screen for JAK2V617F inhibitor project, murine pro-B, CellTiter-Glo luminescence | CellTiter-Glo ATP luminescence | inhibition, % at 5.6 µM | 220,000 tested, 1.1% active | AID 1486, 2009;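 active means inhibition above a per-campaign cutoff, the mean inhibition of all tested compounds plus 3 SD, cut at about 27% in these data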;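 further: 0% = DMSO wells and 100% = JAK Inhibitor I control wells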
RBBP9 inhibitor = human RBBP9 inhibitors, primary screen, biochemical, fluorescence polarization, FP-Rh probe, HTS; AID 1515, 2009; 220,000 tested, 0.2% active; recombinant RBBP9; inhibition, % at 7.94 µM; Serine hydrolase RBBP9 (Homo sapiens), O75884;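 active means inhibition above the campaign mean of all tested compounds plus 3 SD, cut at about 14% in these data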;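 further: plate controls were DMSO wells with RBBP9 for no effect and wells lacking RBBP9 protein for full effect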
Target sequence (O75884 whole entry, looked up): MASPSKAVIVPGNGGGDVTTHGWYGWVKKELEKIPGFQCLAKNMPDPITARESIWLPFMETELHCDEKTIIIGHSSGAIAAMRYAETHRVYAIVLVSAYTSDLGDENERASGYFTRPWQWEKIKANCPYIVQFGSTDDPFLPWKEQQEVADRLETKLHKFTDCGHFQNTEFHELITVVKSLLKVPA
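Test system: recombinant human RBBP9; Timing: 30 min then 45 min, 25 °C; Detection: fluorescence polarization; Control set: RBBP9 with DMSO as uninhibited control, no-protein wells as full inhibition; Compound dosing: one concentration, 7.94 µM nominal, 0.794% DMSO; Probe or stimulus: FP-Rh activity-based probe, 375 nM before mixing.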
NPY-Y2 PAM-ag = NPY-Y2 potentiators or agonists, primary screen, cell-based; Neuropeptide Y receptor type 2 (Homo sapiens), P49146; cells expressing NPY-Y2, potentiator/agonist read-out; activation, % at 3.6 µM; 220,000 tested, 0.45% active; AID 1359, 2008; in the data active means activation above about 27%;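 further: cells stimulated with NPY near EC25 plus isoproterenol at EC100; 0% = vehicle plus submaximal agonist and 100% = vehicle plus saturating agonist; some results beyond the cut were filed as inactive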
Target sequence (P49146 whole entry, looked up): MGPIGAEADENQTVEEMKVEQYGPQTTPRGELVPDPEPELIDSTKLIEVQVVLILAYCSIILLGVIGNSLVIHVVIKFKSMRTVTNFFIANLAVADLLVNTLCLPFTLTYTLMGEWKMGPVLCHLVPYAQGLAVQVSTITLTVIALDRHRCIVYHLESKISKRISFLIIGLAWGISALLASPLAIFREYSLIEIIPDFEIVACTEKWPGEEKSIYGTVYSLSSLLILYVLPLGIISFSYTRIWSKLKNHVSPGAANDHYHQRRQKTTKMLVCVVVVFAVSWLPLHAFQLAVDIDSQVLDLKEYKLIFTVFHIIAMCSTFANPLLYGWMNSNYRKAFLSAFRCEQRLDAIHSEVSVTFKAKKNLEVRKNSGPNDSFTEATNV
NPY-Y1 PAM-ag = NPY-Y1 receptor potentiators or agonists, primary screen, cell-based; Neuropeptide Y receptor type 1 (Homo sapiens), P25929; AID 1304, 2008; activation, % at 3.6 µM; NPY-Y1 expressing cells, potentiator/agonist activation; 220,000 tested, 0.37% active; in the data active means activation above about 33%, passing the limit was not always enough;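 further: cells stimulated with NPY at EC10 then isoproterenol at EC100; 0% = low agonist plus stimulus and 100% = saturating agonist plus stimulus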
S1P4 ag = S1P4 receptor agonists, primary screen, cell-based. S1P4-expressing cell line, agonist reporter assay. activation, % at 4.98 µM. 220,000 tested, 0.35% active; in the data active means activation above about 11%;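 further: 0% = DMSO vehicle and 100% = reference agonist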
Target sequence (O95977 whole entry, looked up): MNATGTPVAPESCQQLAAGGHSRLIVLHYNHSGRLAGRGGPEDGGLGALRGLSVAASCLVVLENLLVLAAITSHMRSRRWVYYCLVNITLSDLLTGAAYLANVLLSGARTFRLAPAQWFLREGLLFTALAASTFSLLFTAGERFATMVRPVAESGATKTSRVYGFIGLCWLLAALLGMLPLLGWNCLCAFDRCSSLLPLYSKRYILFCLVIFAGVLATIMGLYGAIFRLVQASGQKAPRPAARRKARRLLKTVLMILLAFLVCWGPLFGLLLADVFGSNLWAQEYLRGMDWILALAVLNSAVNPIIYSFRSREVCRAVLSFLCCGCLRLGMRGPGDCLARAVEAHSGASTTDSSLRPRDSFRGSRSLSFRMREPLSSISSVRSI
S1P4 antag = S1P4 receptor antagonists, primary screen, cell-based; 220,000 tested, 0.26% active; AID 1510, 2009; inhibition, % at 4.98 µM; Sphingosine 1-phosphate receptor 4 (Homo sapiens), O95977; S1P4-expressing cells, antagonist mode, reporter read-out; in the data active means inhibition above about 29%;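 further: 0% = wells stimulated with agonist and 100% = vehicle wells without agonist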
NPY Y1 blocker = NPY-Y1 receptor antagonists, primary screen, cell-based; Neuropeptide Y receptor type 1 (Homo sapiens), P25929; HEK293-CNG Y1 cells, membrane potential fluorescence; NPY at EC95, then isoproterenol; inhibition, % at 3.6 µM; 200,000 tested, 1% active; AID 1040, 2008;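 active means inhibition above the campaign mean inhibition of all tested compounds plus 3 SD, cut at about 20% in these data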;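 further: 0% = DMSO wells given NPY plus isoproterenol and 100% = isoproterenol alone without NPY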
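Assay system: HEK293 Y1/CNG channel cell line; Doses: single compound dose of 3.6 µM, 0.4% DMSO; Timing: dye 3 h, compound 60 min room temperature, stimulation 45 min; Technique: Membrane-potential fluorescent dye readout; Measure: % inhibition of NPY effect.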
Ba/F3 V617F tox = reduced viability of JAK2V617F-dependent Ba/F3 cells, primary screen, JAK2V617F inhibitor project, cell-based, Ba/F3 EpoR-JAK2V617F, luminescence; ATP luminescence; inhibition, % at 5.6 µM; 220,000 tested, 1.1% active; AID 1446, 2008;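 active means inhibition above the campaign mean plus 3 SD over all tested compounds, cut at about 24% in these data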;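 further: cytokine-independent growth of Ba/F3 cells driven by EpoR plus mutant JAK2; 0% = DMSO-treated cells and 100% = JAK inhibitor I control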
The depositor's hits bear a star. This is a subset; count on the stated rates, not on these rows.

SMILES	BaF3 parental	RBBP9 inhibitor	NPY-Y2 PAM-ag	NPY-Y1 PAM-ag	S1P4 ag	S1P4 antag	NPY Y1 blocker	Ba/F3 V617F tox
CC(C)C12CCC(C(=O)O)C(C1)C(=O)O2 (configuration not stated)	7	0	-2	-7	-3.0	-8	-8	3
O=C(NCCCn1ccnc1)c1ccc(S(=O)(=O)N2CCCCCC2)cc1	2	0	-6	6	0.6	-15	-1	-2
CC1CCN(C(=O)C(NS(=O)(=O)c2cccc3nsnc23)c2ccccc2)CC1 (configuration not stated)	0	-4	2	0	0.6	-12	-4	-5
CCOc1c2ccc(C(=O)NCc3ccco3)cc2nn1CCOC	-1	-3	-7	11	0.3	-4	1	-5
Cc1ccc(-c2nnc(SCC(C)C)n2C)cc1	33*	-7	9	12	0.0	-3	12	30*
CCOC(=O)C1=C(C)N=C2SC(C(=O)OC)=CC(=O)N2C1c1cccc(OC)c1 (configuration not stated)	12	-7	-2	10	0.0	-11	-5	-2
O=C(Nc1ccsc1C(=O)NC1CCCCC1)c1ccc(F)cc1	8	-2	-10	-3	-0.5	-32	2	-2
CCOc1ccc2nc(C)cc(C(=O)O)c2c1	2	4	8	7	2.2	12	1	0
COc1ccc(/C=N/NC(=O)CO/N=C(\C)c2cccs2)cc1	0	-4	4	1	-2.3	16	1	-1
COc1ccc(CN2C(=O)c3ccccc3C(/C=N\OCc3ccc(F)cc3)C2=O)cc1 (configuration not stated)	3	-7	2	9	-1.1	-15	-4	2
CCNc1nc(NCC)nc(C(=O)Nc2ccccc2)n1	-2	-3	-13	-11	0.4	-13	3	-2
Cc1ccc(CSC2=CS(=O)(=O)c3ccccc3N2)cc1	5	-6	-18	-20	1.3	1	-7	2
CCCS(=O)(=O)N1CCCC(C(=O)NCCCN(Cc2ccccc2)C(C)C)C1 (configuration not stated)	3	-2	0	-8	-1.4	-9	-12	-4
O=C(O)/C=C1\NC(=O)c2ccccc21	2	1	-31	-2	1.7	-7	0	2
CCn1nc(C)c(NC(=O)CCSc2nc(-c3ccco3)cc(C(F)(F)F)n2)c1C	6	3	-16	1	-1.1	-7	-4	3
On1c(-c2ccccc2)nc2ccc(Cl)cc21	2	-1	3	-16	1.0	-1	20	-1
CCc1nnc(NC(=O)CSc2nnc(COc3ccccc3)n2Cc2ccccc2)s1	3	5	4	27	-1.4	-7	-8	-3
Cc1nc(NCC2CCCO2)[nH]c(=O)c1CCC(C)C (configuration not stated)	4	3	6	-4	1.8	-10	-1	4
CCOC(=O)CN1C(=O)S/C(=C/c2ccc(N3CCCCC3)o2)C1=O	0	3	-10	-61	0.8	-1	4	-4
Cn1nc(C(F)(F)F)c(C(=O)Nc2cccc(Cl)c2)c1Cl	-2	-9	2	7	-1.9	-14	-2	-5
COc1ccc(Oc2nc(SC)nc3ccsc23)cc1	-1	-8	-11	-34	0.1	-12	7	-6
Cc1ccccc1CSCCNC(=O)CSCc1ccc([N+](=O)[O-])cc1	1	1	-4	-19	-1.1	10	20*	-7
Cc1ccc(-c2csc3ncnc(SCC(=O)c4ccc5c(c4)OCCO5)c23)cc1	-2	-1	-8	-30	-4.1	7	1	-5
O=c1nc(-c2ccccc2)n(-c2ccccc2)c2ncccc12	4	5	10	20	1.1	-7	1	-3
CCOc1c(Cl)cc(Cl)cc1CNCCNCCO	11	-7	-12	-1	0.7	-7	10	3
CCN1C(=O)CC(NNC(=O)c2ccc(Cl)cc2)C1=O (configuration not stated)	5	0	-2	-29	0.8	-4	-2	2
CCC(C)(C)NC(=O)C(c1ccc(C)o1)N(Cc1cccs1)C(=O)Cn1nnc2ccccc21 (configuration not stated)	10	0	-36	-131	-0.3	-2	70*	4
CCC(C)C(=O)Nc1nc(-c2ccc3c(c2)NC(=O)CO3)cs1 (configuration not stated)	-2	-5	-17	-19	0.3	6	2	3
Cc1nonc1NC(=O)Nc1cccnc1	4	-9	-1	2	3.4	-11	1	1
Cn1c(CN2CCOCC2)nnc1SCC(N)=O	-1	1	2	-6	-2.7	0	7	0
Cc1ccc(-n2c([O-])nc(-[n+]3ccccc3)c2C=O)cc1	-1	-3	5	-1	1.4	0	6	-6
O=C(CC1SC(N2CCCCC2)=NC1=O)Nc1cccc(C(=O)O)c1 (configuration not stated)	4	-9	-6	-1	-0.2	-9	-2	2
CCOC(=O)CCCNC(=O)c1cncc(Br)c1	10	3	12	2	0.6	5	4	0
CCCC(C)NC1=NCCCCC1 (configuration not stated)	1	-5	-12	24	-1.6	-3	1	0
CC(=O)N1CCN(c2nc3cc4c(cc3nc2NS(=O)(=O)c2ccccc2)OCCO4)CC1	0	4	11	0	3.2	-5	-5	-6
COc1ccc(NC(=O)N(C2CCCCC2)C(C)c2cccnc2)c(OC)c1 (configuration not stated)	1	2	-1	-4	1.8	-2	8	4
COc1ccc(C2=NCC(CSc3nccc(=O)[nH]3)S2)cc1 (configuration not stated)	4	0	-14	-6	2.3	-6	1	2
CCN(CC)CCCN1C(=O)C(O)=C(C(=O)c2cc3cccc(OC)c3o2)C1c1ccncc1 (configuration not stated)	8	-3	-1	-9	0.7	1	0	1
CCOc1ccc(-c2c[n+](=O)c3c(n2[O-])CCCC3)c(OCC)c1	2	-6	-4	6	1.5	0	7	0
O=C(NCC12CC3CC(CC(C3)C1)C2)c1cc2n(n1)C(C(F)(F)F)CC(c1ccco1)N2 (configuration not stated)	4	-4	1	13	0.2	6	4	1
CCCNC(=O)N1CCC(C(=O)c2cccc(F)c2)CC1	4	-9	-3	18	0.7	-15	-1	-2
COc1ccccc1NC(=O)C1=C(C)Nc2nnnn2C1c1cc(Br)ccc1OC (configuration not stated)	2	-2	-7	32	-1.2	3	-7	1
Cn1c(-c2ccc[nH]c2=O)nc2cc(Cl)ccc21	8	0	12	16	0.2	4	-5	-2
O=S(=O)(c1ccccc1)n1ccc2cccnc21	1	-3	-21	16	0.8	1	-3	-2
O=C(c1ccc(Cl)c(S(=O)(=O)NCc2ccccc2)c1)N1CCN(c2ccccn2)CC1	3	-3	2	-33	-2.5	7	4	1

Gathered by group: those above with an NH in an aromatic ring (three)
SMILES	BaF3 parental	RBBP9 inhibitor	NPY-Y2 PAM-ag	NPY-Y1 PAM-ag	S1P4 ag	S1P4 antag	NPY Y1 blocker	Ba/F3 V617F tox
Cc1nc(NCC2CCCO2)[nH]c(=O)c1CCC(C)C (configuration not stated)	4	3	6	-4	1.8	-10	-1	4
COc1ccc(C2=NCC(CSc3nccc(=O)[nH]3)S2)cc1 (configuration not stated)	4	0	-14	-6	2.3	-6	1	2
Cn1c(-c2ccc[nH]c2=O)nc2cc(Cl)ccc21	8	0	12	16	0.2	4	-5	-2

The listing continues.
SMILES	BaF3 parental	RBBP9 inhibitor	NPY-Y2 PAM-ag	NPY-Y1 PAM-ag	S1P4 ag	S1P4 antag	NPY Y1 blocker	Ba/F3 V617F tox
CC(C)Nc1cc(N2CCCC2)ccc1[N+](=O)[O-]	4	6	0	6	-0.2	-7	-4	5
CSc1nc(Cl)c(C#N)c(-c2ccc(C)cc2)n1	5	-3	-14	-13	1.5	1	10	6
Cc1ccc(CNc2ccc(O)cc2)cc1	1	10	16	3	0.5	-16	-9	-4
CCOc1ccc(C(=O)N2CCCC2C(=O)O)cc1 (configuration not stated)	1	9	3	-2	-2.1	-17	6	-1
O=C(Nc1cccc(C(F)(F)F)c1)C1CCCN(S(=O)(=O)c2cnc[nH]2)C1 (configuration not stated)	0	-6	-7	-13	1.8	-30	-4	-1
Cc1cc(C)n(-c2nc3c(c(=O)[nH]c(=O)n3C)n2C(C)C)n1	5	-1	13	-19	-0.4	13	3	0
CCCC(=O)NC(Nc1cccc(C(F)(F)F)c1)C(Cl)(Cl)Cl (configuration not stated)	7	-9	2	6	-0.1	-19	-1	3
CCN(CC)c1ccc(/C=N/NC(=S)NCc2ccccc2)cc1	-1	-5	8	17	0.7	-11	-3	-3
Nc1nc(N2CCOCC2)cc(=O)[nH]1	-1	0	-1	7	1.1	3	2	0
Cc1ccc(C)c(N(CC(=O)Nc2cc(Cl)ccc2Oc2ccccc2)S(C)(=O)=O)c1	-1	-14	0	18	0.6	-5	-3	1
COc1ccc(C(=O)NCc2ccc(-c3nc4ccccc4s3)cc2)cc1	1	-14	-7	-7	1.4	-9	6	3
COc1ccc(-n2cnnc2SCC(=O)Nc2ccc(N3CCOCC3)cc2)cc1	7	-1	11	3	1.0	-10	4	1
O=C(CSc1ccc(Cl)cc1)N1CCN(c2ccc(Cl)cc2[N+](=O)[O-])CC1	-2	4	-14	-2	0.4	-10	8	0
Cc1c(C(=O)NC(C)CCc2ccccc2)cccc1[N+](=O)[O-] (configuration not stated)	5	-5	6	22	0.7	-9	3	1
Cc1nn(CCOc2ccccc2)c(=O)n1-c1ccc(F)cc1	-3	-4	-3	17	0.2	-13	-1	-4
CCOc1ccc(NC(=O)N(CCN2CCOCC2)Cc2ccc3c(c2)CCCN3CC)cc1	6	-7	19	-15	0.5	-3	16	-2
COc1ccccc1-c1nnc(SCc2nc3ccccc3s2)n1C	5	1	-23	12	0.6	4	-3	1
CCOC(=O)C1=C(C)N(CC(C)C)C(=O)/C1=C\c1ccc(OCC(=O)Nc2ccccc2)cc1	1	0	-7	18	0.1	-14	5	-2
Cn1ccnc1Sc1ccc(/C=N/NC(=O)c2ccccc2[N+](=O)[O-])cc1[N+](=O)[O-]	1	-6	5	24	0.5	3	0	-5
C1CCC2=NCCCN2CC1	1	-13	4	10	-0.2	0	0	0
COC(=O)c1ccc(COc2ccc(/C=C(\C#N)c3nc4ccccc4[nH]3)cc2OC)o1	2	-9	-6	-3	1.3	-1	2	-1
CCOC(=O)/C(=C\c1ccc([N+](=O)[O-])o1)NC(=O)c1ccccc1	4	-3	5	4	2.8	-8	-1	1
O=C(Cc1ccc(F)cc1)N(c1ccc(F)cc1)C1C=CS(=O)(=O)C1 (configuration not stated)	7	-2	-7	18	0.3	15	7	5
Cc1cccc(N(C(=O)Cc2cccs2)C(C(=O)NC2CCCC2)c2ccsc2)c1 (configuration not stated)	0	-1	1	8	1.3	-24	3	-7
FC(F)(F)c1nc(-c2cccnc2)ncc1-c1nnnn1-c1ccccc1	4	1	-6	-23	2.5	-13	1	3
N#Cc1nc(Cc2cccc3ccccc23)oc1N1CCN(c2ccccc2)CC1	4	-4	5	15	0.4	5	6	-3
COc1ccc(CN(C(=O)c2cccs2)C(C(=O)NC2CCCCC2)c2ccc3ncccc3c2)cc1 (configuration not stated)	3	3	0	-9	0.0	-26	5	10
CCNc1nc(NCC)nc(N(C)N)n1	1	-1	5	19	-0.8	-10	1	-3
